Screening results deposited in PubChem BioAssay by National Center for Advancing Translational Sciences (NCATS).
HPGD inh = HPGD (human) dehydrogenase inhibition; P15428; purified HPGD, NADH fluorescence kinetic, PGE2 substrate; Potency, µM, inactives show at the highest dose activity change, negative = inhibition, most hits filed as inhibitors; actives 4.3% (n = 150,000); AID 894; active = well fitted inhibition curve with a large enough effect (not every such curve was filed as active); inconclusive = small, poorly fitted or top-dose-only effect, or another doubt; inactive = no such curve, though single readings can be large or run the other way;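 also: top concentration of the series not given in the record; plate controls included wells without enzyme; inactives centre near -10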
Target sequence (P15428 whole entry, looked up): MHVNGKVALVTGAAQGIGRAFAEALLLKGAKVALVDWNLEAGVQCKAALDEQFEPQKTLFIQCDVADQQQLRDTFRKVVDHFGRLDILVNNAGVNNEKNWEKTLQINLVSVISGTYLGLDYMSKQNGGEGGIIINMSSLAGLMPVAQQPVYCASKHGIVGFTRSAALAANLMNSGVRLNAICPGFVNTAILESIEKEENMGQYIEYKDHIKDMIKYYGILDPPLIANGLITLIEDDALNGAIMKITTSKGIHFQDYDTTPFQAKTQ
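NADH formation kinetics: reaction with 30 uM PGE2 and 1 mM NAD+ (final), 20 nM enzyme, Tris-HCl pH 8 with Tween 20, after 15 min compound preincubation at room temperature. Fluorescence change, last versus first of five reads.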
* marks the source's active call; other numbers are inactive results; ? = inconclusive; & = joins results of further samples. % is scaled to controls: 0 for no effect and ±100 for the full control effect; potency is read from the fitted curve at half-maximal effect. Some of the compounds tested; the hit share may differ from the screen's.

Start of the data: the first two entries, to show the layout:
SMILES | HPGD inh
CSc1ccccc1C(=O)Nc1cccc(C(C)=O)c1 | -5%
Cn1c(C(=O)NCCN2CCOCC2)cc2sccc21 | -11%

Results, repeating the preview:
SMILES | HPGD inh
CSc1ccccc1C(=O)Nc1cccc(C(C)=O)c1 | -5%
Cn1c(C(=O)NCCN2CCOCC2)cc2sccc21 | -11%
C=CCc1ccccc1OCC(O)CN1CCN(c2ccc(C)cc2)CC1 (stereo not given) | -5%
O=C(NN1C(=O)C2C3CCC(O3)C2C1=O)c1ccco1 (stereo not given) | 6%
O=C(COC(=O)C1COc2ccccc2O1)NC(=O)NC1CCCC1 (stereo not given) | -4%
O=C1CCC([N+](=O)[O-])C(c2ccc(Cl)cc2)N1 (stereo not given) | -4%
CCOc1ccccc1CNC(=O)c1cc2oc3ccccc3c2n1CC | ?
Cc1ccc(NC(=O)CC2C(=O)NC3CCCCC3N2C(=O)c2ccc(F)cc2)cc1C (stereo not given) | -13%
CCCC(=O)Nc1ccc(C(=O)/C=C/c2ccc(SC)cc2)cc1 | -13%
CCOC(=O)c1c(-c2ccc(F)cc2)csc1NC(=O)CN1C(=O)NC2(CCCCC2C)C1=O (stereo not given) | -2%
COc1ccccc1CNC(=O)CN(c1ccc(C)cc1)S(=O)(=O)c1c(C)n[nH]c1C | -10%
CS(=O)(=O)N1CCCC(C(=O)NCCN2CCC(Cc3ccccc3)CC2)C1 (stereo not given) | -7%
O=C(Cn1cnc2c(cnn2-c2ccc(Cl)cc2)c1=O)NC1CCCCC1 | -14%
CN(C)Cc1ccc(F)cc1Sc1cc(Cl)ccc1Cl | -8%
CCOC(=O)c1c(NC(=O)c2c(-c3ccccc3)noc2C)sc(C)c1-c1ccccc1 | ?
CCCCC(=O)Nc1nnnn1CCC | -1%
CC(=O)N1N=C(c2ccco2)CC1c1cccs1 (stereo not given) | -15%
CCOc1ccc(-n2c(SCC(=O)Nc3ccc4c(c3)OCO4)nc3ccccc3c2=O)cc1 | -14%
COc1ccc2c(c1OC)C(=O)N(c1ccc3c(c1)CCC3)C2=O | -15%
CCOC(=O)c1c(C)oc2ccc(OC(=O)N3CCOCC3)cc12 | -5%
CCOC(=O)C(NC(=O)Cc1ccccc1)(Nc1cc(C)on1)C(F)(F)F (stereo not given) | -10%
CCCCNC(=S)NC(=O)c1ccc(Cl)cc1Cl | -17%
Cc1ccc(OCC(=O)NCCN2CCOCC2)cc1C | -9%
COc1ccc(NC(=O)N2CCCC(c3nc(-c4ccc(C(C)C)cc4)no3)C2)cc1 (stereo not given) | -17%
CCC(=O)NC(=S)Nc1cccc(-c2nc3ncccc3o2)c1 | -22%

Continued:
SMILES | HPGD inh
Cc1ccc(OCCn2cnc3ccccc3c2=O)c([N+](=O)[O-])c1 | -6%
CN(c1cccc(NC(=O)CN(c2ccc(Cl)c(Cl)c2)S(=O)(=O)c2ccccc2)c1)S(C)(=O)=O | -6%
CCOC(=O)C1=C(C)NC(c2ccccc2)=C(C(=O)OCc2ccc([N+](=O)[O-])cc2)[C@@H]1C#Cc1ccccc1 | -15%
OC(COC1CCCCC1)CN1CCN(c2ccccc2)CC1 (stereo not given) | -12%
COc1ccc(NC(=O)CSc2nc(O)c(Cc3ccccc3)c(=O)[nH]2)cc1 | -9%
CCOc1ccccc1NC(=O)C1CCCCN1S(=O)(=O)c1ccc(F)cc1 (stereo not given) | -6%
O=C(c1ccc(F)cc1)c1cn[nH]c1-c1ccccc1O | -11%
C[C@@H]1CCCN(C[C@@H](O)CN2CCCc3ccccc32)C1 | -12%
OCC1O[C@H](Oc2ccc(O)cc2)C(O)C(O)C1O (stereo not given in full) | -4%
CC(C)Nc1nc(NC(C)C)nc(N(C)C(N)=O)n1 | -3%
COc1ccccc1-c1c(C)nn2c(N3CCC(C(N)=O)CC3)cc(C)nc12 | -5%
O=C(NCc1ccccc1Cl)c1ccc2nc[nH]c2c1 | -5%
Cc1ccc(S(=O)(=O)n2nc(OC(=O)c3c(-c4ccccc4Cl)noc3C)cc2N)cc1 | -14%
CCN(C(=O)COC(=O)c1ccccc1SCC(=O)NC1CCCCCCC1)C1CCS(=O)(=O)C1 (stereo not given) | ?
Cc1ccc(CC(NC(=O)c2ccccc2)C(=O)N2CCCC2C(=O)O)cc1 (stereo not given) | 0%
CCC1(C)Cc2c(sc3[nH]c(=S)n(Cc4ccccc4)c(=O)c23)CO1 (stereo not given) | -29%
CCOc1ccc(N2C(=O)CC(NCCc3ccncc3)C2=O)cc1 (stereo not given) | -6%
CCn1c(SCC(=O)NC2CCCC2)nnc1-c1c[nH]c2ccccc12 | -9%
COC(=O)Cc1[nH]nc2c1C1(C(=O)N(Cc3ccc(Cl)cc3)c3ccccc31)C(C#N)=C(N)O2 (stereo not given) | -4%
CC(=O)c1cccc(S(=O)(=O)NC2CCCCCC2)c1 | -14%
Cc1cc(C)c(C#N)c(SCc2nnc(-c3ccccc3)o2)n1 | 4µM*
Nc1ccc(N2C(=O)c3ccccc3C2=O)c(Cl)c1 | 4%
CC(C)(Oc1ccc(Cl)cc1)C(=O)N1CCN(c2ccccn2)CC1 | -1%
Cc1nnc(NC(=O)c2ccccc2C(=O)O)s1 | -7%
c1ccc(CSCc2cn3ccsc3n2)cc1 | ?

Next section
SMILES | HPGD inh
O=C(c1ccc(-c2ccccc2)cc1)N1CCN(C(=O)c2ccco2)CC1 | -12%
COc1ccc(NC(=O)CS(=O)CC(=O)Nc2cc(Cl)ccc2OC)cc1 (stereo not given) | -8%
CCCCN=Cc1sc2ccc(OCC)cc2c1O | ?
Cc1ccc(N(CC(=O)Nc2ccccc2C(=O)N2CCOCC2)S(C)(=O)=O)cc1 | -10%
COc1ccc(CCNC(=O)CSCc2ccc(Cl)cc2)cc1OC | -3%
CCCc1n[nH]c2c1C(=O)CC(C)(C)C2 | -15%
COc1ccc(C2=NC(c3ccccc3)CO2)cc1 (stereo not given) | -14%
COC(=O)Cn1cc(/C=N/NC(=O)c2ccc(C#N)cc2F)c2ccccc21 | -9%
COc1ccc(CC(=O)Nc2cccc(-c3csc(C)n3)c2)cc1 | -19%
O=C(NCc1ccc2c(c1)OCO2)c1cccc2c1C(=O)N(C1CCCCC1)C2 | -7%
Cc1cccc(N(CC(=O)NCCSc2ccccn2)S(=O)(=O)c2ccccc2)c1 | 2%
CCOC(=O)c1[nH]c(C)c(/C(O)=C2\C(=O)C(=O)N(CCN(C)C)C2c2ccc(C)o2)c1C (stereo not given) | -1%
CC(C)C[C@H](NC(=O)NCc1ccccc1Cl)C(=O)O | -5%
CN(CC(=O)Nc1ccc(Cl)c(C(F)(F)F)c1)C(=O)/C=C/c1ccco1 | -13%
O=C1/C(=C/c2cccs2)NC(=S)N1C1CC1 | 16µM*
CCCn1nc(NC(=O)C2CCCO2)c2cc3cc(C)ccc3nc21 (stereo not given) | -30%
O=C(COc1ccc(Br)cc1Cl)NC(=O)NCc1ccccc1 | 1%
COc1ccccc1CNC(=O)C(Cc1c[nH]c2ccccc12)NC(=O)OCc1ccccc1 (stereo not given) | -4%
CSCC[C@H](NC(=O)NCc1ccccc1F)C(=O)O | -4%
Fc1ccc(CSc2ncnc3nc[nH]c23)cc1 | -16%
CCOc1ccc(OCc2ccc(C(=O)N3CCc4ccccc4C3)o2)cc1 | -24%
O=C1c2ccccc2C2=Nc3ccccc3SC(c3ccc(Cl)cc3)C12 (stereo not given) | -5%
C/C(=C/c1oc2ccc(O)cc2c1[N+](=O)[O-])N(C)C | -12%
Cc1cc2occ(CC(=O)OCC(=O)Nc3sc4c(c3C#N)CCC(C)C4)c2cc1C (stereo not given) | -17%
CCOC(=O)C1=C(N)Oc2cc(C)oc(=O)c2C1c1cccnc1 (stereo not given) | -11%

A second format for 16 compounds above:
HPGD inh	SMILES
-7%	O=C(NCc1ccc2c(c1)OCO2)c1cccc2c1C(=O)N(C1CCCCC1)C2
2%	Cc1cccc(N(CC(=O)NCCSc2ccccn2)S(=O)(=O)c2ccccc2)c1
-1%	CCOC(=O)c1[nH]c(C)c(/C(O)=C2\C(=O)C(=O)N(CCN(C)C)C2c2ccc(C)o2)c1C (stereo not given)
-5%	CC(C)C[C@H](NC(=O)NCc1ccccc1Cl)C(=O)O
-13%	CN(CC(=O)Nc1ccc(Cl)c(C(F)(F)F)c1)C(=O)/C=C/c1ccco1
16µM*	O=C1/C(=C/c2cccs2)NC(=S)N1C1CC1
-30%	CCCn1nc(NC(=O)C2CCCO2)c2cc3cc(C)ccc3nc21 (stereo not given)
1%	O=C(COc1ccc(Br)cc1Cl)NC(=O)NCc1ccccc1
-4%	COc1ccccc1CNC(=O)C(Cc1c[nH]c2ccccc12)NC(=O)OCc1ccccc1 (stereo not given)
-4%	CSCC[C@H](NC(=O)NCc1ccccc1F)C(=O)O
-16%	Fc1ccc(CSc2ncnc3nc[nH]c23)cc1
-24%	CCOc1ccc(OCc2ccc(C(=O)N3CCc4ccccc4C3)o2)cc1
-5%	O=C1c2ccccc2C2=Nc3ccccc3SC(c3ccc(Cl)cc3)C12 (stereo not given)
-12%	C/C(=C/c1oc2ccc(O)cc2c1[N+](=O)[O-])N(C)C
-17%	Cc1cc2occ(CC(=O)OCC(=O)Nc3sc4c(c3C#N)CCC(C)C4)c2cc1C (stereo not given)
-11%	CCOC(=O)C1=C(N)Oc2cc(C)oc(=O)c2C1c1cccnc1 (stereo not given)

Next section:
SMILES | HPGD inh
CC(C)(C)NS(=O)(=O)c1cnc(Cl)c(Cl)c1 | -5%
COc1cc(S(=O)(=O)N(Cc2ccc(C)cc2)C2CCCCC2)ccc1-n1cnnn1 | -10%
CCOCCCNC(=O)c1ccccc1SC | -14%
CC(C)c1cc(NCCCN2CCOCC2)n2c(nc3ccccc32)c1C#N | ?
CCOc1ccc(CCNC(=O)CN2CCN(Cc3ccccc3C)C2=O)cc1OCC | -4%
CC(C)(C)CC(=O)NCCCCCCNC(=O)CC(C)(C)C | -19%
CC(=O)OC1CC(OC(C)=O)[C@]2(C)C(CC(=O)[C@]3(C)C2CC[C@@]2(C)C(C(=O)O)OC(=O)C4OC423)C1(C)C (stereo not given in full) | -5%
Cn1c(N2CCC(C(N)=O)CC2)nc2c1c(=O)n(Cc1ccc(Cl)cc1)c(=O)n2C | -11%
COc1ccc(NC(=O)C(CC(C)C)NC(=O)c2ccccc2C)cn1 (stereo not given) | -4%
COC(=O)C1=C(C(=O)OC)[C@@H]2N(Cc3ccccc3)c3ccccc3[C@@]23C[C@@H](C(=O)OC)N(S(=O)(=O)c2c(C)noc2C)C3=N1 | -3%
O=C(NCCCN1CCOCC1)Nc1ccc(Cc2ccc(NC(=O)NCCCN3CCOCC3)cc2)cc1 | -4%
Cc1ccc(OCCNC(=O)c2ccccc2N)cc1 | ?
COc1ccc2[nH]c(=O)c(CN(CCO)C(=O)c3ccccc3F)cc2c1 | -18%
CCCCC(NC(C)=O)c1nc2ccccc2[nH]1 (stereo not given) | -7%
Cc1cccc(CC(=O)N2CCN=C2SCc2ccc([N+](=O)[O-])cc2)c1 | -15%
Cc1cccc(NC(=O)CSc2ncnc3nc[nH]c23)c1 | ?
O=C(CSc1nc2ccccc2c(=O)n1-c1ccccc1)N1CCCC1 | -19%
COc1ccc(N2C(=O)C(CC(=O)Nc3ccc(F)cc3)N(CCc3cccs3)C2=O)cc1 (stereo not given) | -5%
COc1ccc(-n2ncc3c(=O)n(CC(=O)Nc4ccc(S(=O)(=O)N5CCOCC5)cc4)cnc32)cc1 | ?
Cc1c(O)cccc1C(=O)N[C@@H](CSc1ccccc1)[C@H](O)CN1C[C@H]2CCCC[C@H]2C[C@H]1C(=O)NC(C)(C)C | -14%&-14%
COc1ccc(/C=C2/SC(=O)N(CC(=O)Nc3cc(C)on3)C2=O)cc1OC | -25%
COc1ccc(CC(=O)Nc2ccc(-c3cn4ccccc4n3)cc2)cc1OC | ?
O=C(Nc1ccc(F)cc1F)c1cc2n(n1)C(C(F)(F)F)C1CCCCC1N2 (stereo not given) | -9%
Cc1nn2c(C)nc3sc4c(c3c2nc1=O)CC(C)(C)OC4 | -12%
CC(=O)COC(=O)CCc1nc2ccccc2[nH]c1=O | ?

Remaining list, next part
SMILES | HPGD inh
COc1ccc(-c2c(C#N)c(N)nc3c2c(=O)n(C)c(=O)n3C)cc1 | -27%
Cc1cc(C(=O)N/N=C/c2ccc(-c3ccccc3Cl)o2)n[nH]1 | -28%
Cc1sc(C(=O)NCc2cccnc2)c2nc(C)n(CC(=O)NCc3cccnc3)c(=O)c12 | -2%
COC(=O)CCCCCc1ccc(C(C)=O)s1 | ?
COc1ccc(-c2cn[nH]c2N)c(OC)c1 | -12%
Nc1ccc(N2CCN(C(=O)c3cccs3)CC2)cc1 | -2%
CCCCOc1ccc(CSC(CC(=O)O)C(=O)O)cc1 (stereo not given) | -16%
COC(=O)c1ccc(C(=O)OC)c(NC(=S)N2CC(C)CC(C)C2)c1 (stereo not given) | ?
CCCCOc1ccc(S(=O)(=O)N2CCCCCC2)cc1 | 0%
COCCN(CCOC)Cc1c(O)ccc2c3c(c(=O)oc12)CCC3 | ?
COC(=O)C1=C(C(=O)OC)[C@@H]2N(C)c3ccccc3[C@@]23C[C@@H](C(=O)OC)N(C(=O)c2ccc(Br)cc2)C3=N1 | -17%
COC(=O)c1cccc(N2C(=O)C3CC=CCC3C2=O)c1 (stereo not given) | -10%
COc1ccc(C2=C(Nc3ccc(C)cc3)c3ccccc3C2=O)cc1 | -6%
O=C(NNC(=S)NCc1ccccc1)c1ccc(OC(F)F)cc1 | -7%
CCOC(=O)c1sc(=S)n(-c2ccccc2OC)c1N | ?
O=C(O)C1CC(=O)N(c2ccc(OCc3c(F)cccc3Cl)cc2)C1 (stereo not given) | 1.6µM*
COc1cc(C=O)c(Br)cc1OC1CCCC1 | -2%
O=C1CCSc2ccc(Cl)cc2N1Cc1ccccc1 | -4%
Cc1nc2ccccn2c1/C(O)=C1\C(=O)C(=O)N(CCCn2ccnc2)C1c1ccncc1 (stereo not given) | -20%
Cc1nnc(NC(=O)c2ccccc2Br)s1 | -8%
Cc1c(NC(=O)C(C)OC(=O)c2cccnc2)c(=O)n(-c2ccccc2)n1C (stereo not given) | -1%
